PMP22 txn prim = Cell-based coincidence reporter assay to measure PMP22 gene transcription in S16 Pmp22-F2sN cells - Primary screen; S16 Pmp22-F2sN Schwann cells (luciferase reporters placed in the Pmp22 gene), FLuc/NLuc coincidence luminescence, 24 h; Potency, µM (series often up to 57.5 µM), for inactives: at the highest dose activity change, negative = inhibition, actives largely listed as inhibitors; 43,000 compounds, 2% hits; AID 1508649, 2021; active = clear falling dose curves in both reporters; inconclusive = both reporters move, but less clearly or upward; inactive = either reporter flat; the % is the NLuc reporter signal; note: % is set by controls: 0 for no effect and ±100 for the full control effect; some results filed as inactive show a strong effect at the top dose
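Schwann cells carrying the coincidence reporter were exposed to library compounds for 24 h at 37C, then lysed and read for FLuc and, after quenching, NLuc luminescence on a CCD imager.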
HTT prom inh = Primary qHTS for Identification of Small Molecule Inhibitors of Huntingtin Promoter Activity; HEK293 HTT promoter firefly luciferase reporter (activity 0% = vehicle and -100% = no light), 24 h; Potency, µM (titrated, usually from 57.5 µM), for inactives: at the highest dose activity change, negative = inhibition, hits mostly inhibitors; 48,000 compounds, 0.93% hits; active = well fitted inhibition curve with a large enough effect; inconclusive = small, poorly fitted or top-dose-only effect; inactive = no such curve, though single readings can be large or run the other way; note: nearly all actives have a fitted effect of over 50% in size
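Firefly luciferase readout (Dual-Glo, 10 min RT) after 24 h, 37 °C compound exposure (final up to 57.5 uM) of HEK293 reporter cells cultured 24 h beforehand; PTC124 at 50 uM final as control inhibitor; activity scaled vehicle 0%, zero RLU -100%.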
Numbers without * were called inactive; [ ] = dose if it differs, or a comment. Potency is the fitted concentration of half-maximal effect. The list is partial (hit frequency here may not be typical).

For Nc1nonc1C(=O)NCCNCc1cccc(Cl)c1Cl the results were PMP22 txn prim -5.6% and HTT prom inh 7.1%.
COC(=O)c1cc(C)nc2c1c(=O)nc(SCc1cccc(C)c1)n2C1CC1 was read as PMP22 txn prim -5.7% and HTT prom inh -8.5%.
Cc1ccccc1OCC(=O)Nc1nnc(S(=O)(=O)N(C)c2ccccc2)s1 was read as PMP22 txn prim -11.5% and HTT prom inh 0.6%.
CC(C)c1ccc(NC(=O)CCNS(=O)(=O)c2cccc3nsnc23)cc1 was read as PMP22 txn prim -0.9% and HTT prom inh -20.4%.
For Cc1cccc(CC(=O)NC2CC(=O)N(c3ccc4c(c3)OCCO4)C2)c1 (configuration not stated) the results were PMP22 txn prim -7.6% and HTT prom inh 1.1%.
CCOc1ccc(NC(=O)CN2CCN(CC(=O)Nc3ccccc3OCC)CC2)cc1 was read as PMP22 txn prim -55.9% and HTT prom inh -10.5%.
Screening O=C(Nc1cccc(Cl)c1)N1Cc2ccccc2Oc2ncccc21 returned PMP22 txn prim -5.8% and HTT prom inh -10.3%.
COc1ccc(OC)c(S(=O)(=O)NCCc2sc(-c3cccnc3)nc2C)c1 was read as PMP22 txn prim -16.8% and HTT prom inh -3.7%.
For COCCNC(=O)CCCN1C(=O)c2ccccc2Sc2ncccc21 the results were PMP22 txn prim 12.8% and HTT prom inh -7.1%.
For Cc1cccc(NC(=O)CCNS(=O)(=O)c2cccc3nsnc23)c1C the results were PMP22 txn prim -1.9% and HTT prom inh -8.6%.
Screening Cc1ccc(NC(=O)c2cccc3c2C(=O)N(C2CCCCC2)C3)c(C)c1 returned PMP22 txn prim -7.8% and HTT prom inh -4.2%.
For CCc1ccc(NC(=O)Cn2c(=O)n(-c3ccccc3)c(=O)c3ccc(C(=O)NCc4ccc5c(c4)OCO5)cc32)cc1 the results were PMP22 txn prim inconclusive and HTT prom inh -28.4%.
Screening COc1cc2c(cc1OC)C(COc1ccc3c(C)cc(=O)oc3c1)N(C(=O)c1ccc(C)cc1)CC2 (configuration not stated) returned PMP22 txn prim inconclusive and HTT prom inh -28.8%.
`CCCN(CCC)C(=O)c1cc2c(=O)n3cccc(C)c3nc2s1` gave PMP22 txn prim -34.9% and HTT prom inh 15.9%.
`Cc1nc2c(-c3ccccc3)c(C)nn2c(C)c1CCC(=O)N1CCN(c2ccccc2)CC1` gave PMP22 txn prim inconclusive and HTT prom inh -7.7%.

Next section, starting with the last three of the part before.
Screening COc1cc2c(cc1OC)C(COc1ccc3c(C)cc(=O)oc3c1)N(C(=O)c1ccc(C)cc1)CC2 (configuration not stated) returned PMP22 txn prim inconclusive and HTT prom inh -28.8%.
`CCCN(CCC)C(=O)c1cc2c(=O)n3cccc(C)c3nc2s1` gave PMP22 txn prim -34.9% and HTT prom inh 15.9%.
`Cc1nc2c(-c3ccccc3)c(C)nn2c(C)c1CCC(=O)N1CCN(c2ccccc2)CC1` gave PMP22 txn prim inconclusive and HTT prom inh -7.7%.
O=C(NCC(c1cccnc1)N1CCc2ccccc21)c1ccc(Cl)cc1 (configuration not stated) was read as PMP22 txn prim -10.1% and HTT prom inh inconclusive.
For CC(=O)c1cccc(NC(=O)c2ccc3nc(C(C)C)oc3c2)c1 the results were PMP22 txn prim inconclusive and HTT prom inh -20.2%.
Screening N#C/C(=C\c1ccc(Cl)cc1)C(=O)NCC1CCCO1 (configuration not stated) returned PMP22 txn prim 4.3% and HTT prom inh 9.3%.
For COc1cccc(CNC(=O)C(NS(=O)(=O)c2ccc3c(c2)CCN3C(C)=O)C(C)C)c1 (configuration not stated) the results were PMP22 txn prim 6.6% and HTT prom inh -13.1%.
For CN1CCc2c(sc3c2C(=O)NC(c2ccc(OC(=O)c4ccc(C(C)(C)C)cc4)cc2)N3)C1 (configuration not stated) the results were PMP22 txn prim inconclusive and HTT prom inh inconclusive.
Cc1ccc(Cl)cc1N1CCN(C(=O)c2cn(C)c3ccc(S(=O)(=O)N4CCC(C)CC4)cc3c2=O)CC1 was read as PMP22 txn prim 0.4% and HTT prom inh 48.5%[activator][11.5 µM].
COc1ccc(NCc2cc3ccc(OC)cc3n(CC(=O)Nc3cc(Cl)ccc3C)c2=O)cc1 was read as PMP22 txn prim -26.3% and HTT prom inh -4.3%.
`COc1cccc(C(=O)Nc2c(C(=O)c3ccc(F)cc3)oc3ccccc23)c1` gave PMP22 txn prim -5.0% and HTT prom inh -16.4%.
For Cc1cccc(-c2noc(-c3cc(-c4ccc(F)cc4)n[nH]3)n2)c1 the results were PMP22 txn prim -29.9% and HTT prom inh -29.1%.
Screening CCOC(=O)c1sc(NC(=O)c2cc3nc(-c4ccccc4)cc(C(F)(F)F)n3n2)c(C(=O)OCC)c1C returned PMP22 txn prim 1.8% and HTT prom inh -11.4%.
For CCc1ccc(-n2nc(C)c3c(C(=O)N4CCN(c5cccc(Cl)c5)CC4)cc(C)nc32)cc1 the results were PMP22 txn prim -18.0% and HTT prom inh inconclusive.
CCOc1ccc(CN2CCc3nc(N4CCN(c5ncccn5)CC4)ncc3C2)cc1OC was read as PMP22 txn prim -88.1% and HTT prom inh inconclusive.
CCc1ccc(S(=O)(=O)c2cn(C)c3ccc(C)cc3c2=O)cc1 was read as PMP22 txn prim 41.7% and HTT prom inh -22.3%.
Screening CCOc1ccc(OCC(=O)NCCS(=O)(=O)N2CCN(c3ccc(OC)cc3)CC2)cc1 returned PMP22 txn prim 17.2% and HTT prom inh -15.1%.
CC(C)=CCC/C(C)=C/CO was read as HTT prom inh 1.4%.
Screening CC(=O)N1CCC2(CC1)OC(=O)C(C)=C2C(=O)NCc1ccc(Cl)cc1 returned PMP22 txn prim -6.6% and HTT prom inh -5.0%.
For O=C(CSc1nc2c([nH]c3ccccc32)c(=O)n1-c1cccc(C(F)(F)F)c1)N1CCc2ccccc21 the results were PMP22 txn prim inconclusive and HTT prom inh -7.1%.
CCC(=O)N1c2ccccc2C(C)(c2ccccc2)CC1(C)C (configuration not stated) was read as PMP22 txn prim -3.1% and HTT prom inh 9.8%.
`COc1cc(Cl)c(C)cc1NC(=O)c1cnc2c(-c3cccc(C)c3)c(C)nn2c1C` gave PMP22 txn prim 6.9% and HTT prom inh -24.7%.
CC(C)CCNC(=O)c1ccc2c(c1)N(Cc1cccc(Cl)c1)C(=O)c1ccccc1S2 was read as PMP22 txn prim 11.8% and HTT prom inh inconclusive.
Screening COCCn1c(C)cc(O)c(C(c2ccccc2OC)N2CCN(c3ccccc3)CC2)c1=O (configuration not stated) returned PMP22 txn prim -5.6% and HTT prom inh -7.5%.
Screening Cc1ccc(C)c(NC(=O)Cn2cnc3nc4c(cc3c2=O)CCCC4)c1 returned PMP22 txn prim -9.0% and HTT prom inh -4.6%.
For Cc1cc2ccccc2n1-c1ccc(C(=O)N2CCC(C(=O)NCc3ccc(Cl)cc3)CC2)s1 the results were PMP22 txn prim inconclusive and HTT prom inh 14.1µM*.
CCOC(=O)c1c(NC(=O)COc2cccc(C(F)(F)F)c2)sc2c1CCCCC2 was read as PMP22 txn prim -11.9% and HTT prom inh -12.3%[11.5 µM].
`COc1cc(OC)cc(-c2nc3nc(C)c(CCC(=O)Nc4ccc(C)cc4C)c(C)n3n2)c1` gave PMP22 txn prim -56.7% and HTT prom inh -20.0%.
`CSc1ncc(C(=O)N2CCN(c3cccc(C(F)(F)F)c3)CC2)c(C)n1` gave PMP22 txn prim inconclusive and HTT prom inh -15.6%.
Screening N#CC1(c2cccc(C(=O)Nc3cc(Oc4ccc5nc(NC(=O)C6CC6)sc5n4)ccc3F)c2Cl)CC1 returned HTT prom inh -14.9%.
COc1cccc(CNC(=O)c2c(C)oc3nc(C)nc(N4CCOCC4)c23)c1 was read as PMP22 txn prim -2.2% and HTT prom inh 3.7%.
Screening COC(=O)c1ccccc1NC(=O)c1sc2nc(C)cc(C)c2c1NC(=O)c1ccccc1OC returned PMP22 txn prim 10.3% and HTT prom inh -10.4%.
Screening Cc1cc(C)n(C(C)CC(=O)NCc2ccccc2C)n1 (configuration not stated) returned PMP22 txn prim -27.3% and HTT prom inh 8.4%.

3 entries from above, ordered by count of non-hydrogen atoms, low to high:
Screening CC(=O)N1CCC2(CC1)OC(=O)C(C)=C2C(=O)NCc1ccc(Cl)cc1 returned PMP22 txn prim -6.6% and HTT prom inh -5.0%.
`CSc1ncc(C(=O)N2CCN(c3cccc(C(F)(F)F)c3)CC2)c(C)n1` gave PMP22 txn prim inconclusive and HTT prom inh -15.6%.
Screening COCCn1c(C)cc(O)c(C(c2ccccc2OC)N2CCN(c3ccccc3)CC2)c1=O (configuration not stated) returned PMP22 txn prim -5.6% and HTT prom inh -7.5%.

Additional compounds:
Screening CCc1cccc(NC(=O)CCn2nc(C)cc2C)c1 returned PMP22 txn prim 31.4% and HTT prom inh -4.6%.
Screening Cc1ccc(N2C(=O)CS(=O)(=O)C23C(=O)N(Cc2ccc(Cl)cc2)c2ccccc23)cc1C (configuration not stated) returned PMP22 txn prim -28.1% and HTT prom inh inconclusive.
`COc1ccccc1N1CCN(S(=O)(=O)c2cc3[nH]c(=O)c(=O)[nH]c3cc2C)CC1` gave PMP22 txn prim -1.8% and HTT prom inh 3.2%.
For O=C(c1cccc(Cl)c1)N1c2nc(-c3ccco3)nn2C2(CCCCC2)[C@@H]2CCCC[C@@H]21 the results were PMP22 txn prim -14.9% and HTT prom inh -5.6%.
Screening Cc1ccc(S(=O)(=O)NCC(c2ccco2)N2CCN(c3ccccc3F)CC2)cc1 (configuration not stated) returned PMP22 txn prim inconclusive and HTT prom inh -12.4%.
Screening Cc1ccc(Cl)cc1N1CCN(C(=O)c2cnc(N3CCOCC3)c3ccccc23)CC1 returned PMP22 txn prim inconclusive and HTT prom inh inconclusive.
For Cc1nn(-c2ccccc2)c(OC(=O)c2ccccc2Cl)c1S(=O)(=O)c1ccccc1 the results were PMP22 txn prim -7.8% and HTT prom inh 1.2%.
Screening CC(=O)N1CCOc2cc(S(=O)(=O)NCc3ccccc3Cl)c(Cl)cc21 returned PMP22 txn prim 2.5% and HTT prom inh -10.5%.
Screening CCc1ccc(C(=O)c2cn(CC(=O)Nc3cccc(C)c3C)c3nc(C)ccc3c2=O)cc1 returned PMP22 txn prim inconclusive and HTT prom inh 4.5%.
O=C(Cn1c(=O)n(CCCS(=O)(=O)C2CCCCC2)c(=O)c2ccccc21)Nc1ccc(F)c(Cl)c1 was read as PMP22 txn prim -22.0% and HTT prom inh -6.1%.
For Cc1ccc(C)c(NC(=O)CSc2nc(=O)n(Cc3ccncc3)c3c2CCC3)c1 the results were PMP22 txn prim -11.2% and HTT prom inh -18.8%.
For Cc1ccccc1CSc1nc(-c2cccc(F)c2)nc2c1Cc1c(CO)cnc(C)c1O2 the results were PMP22 txn prim 1.1% and HTT prom inh -8.7%.
Cc1ccc(F)cc1NC(=O)CCSc1nc(-c2ccco2)cc(C(F)(F)F)n1 was read as PMP22 txn prim 9.4% and HTT prom inh -23.9%[11.5 µM].
CCn1c2c(c(=O)n3ncc(C(=O)Nc4cc(Cl)ccc4OC)c13)CN(Cc1ccc(OC)cc1)CC2 was read as PMP22 txn prim inconclusive and HTT prom inh -3.5%.
`CCCCCn1c(CCCNC(=O)c2cccc(C)c2)nc2ccccc21` gave PMP22 txn prim inconclusive and HTT prom inh -7.9%.

Filtered by structure: the entries above with a cyano group.
Screening N#C/C(=C\c1ccc(Cl)cc1)C(=O)NCC1CCCO1 (configuration not stated) returned PMP22 txn prim 4.3% and HTT prom inh 9.3%.
Screening N#CC1(c2cccc(C(=O)Nc3cc(Oc4ccc5nc(NC(=O)C6CC6)sc5n4)ccc3F)c2Cl)CC1 returned HTT prom inh -14.9%.

Next section
Screening CN(C)CCCN(C(=O)c1ccc2c(c1)OCCO2)c1nc2ccccc2s1 returned PMP22 txn prim -39.6% and HTT prom inh -31.8%.
For COc1cccc(CNC(=O)c2ccc3c(c2)nc2n3CCC(C)C2)c1OC (configuration not stated) the results were PMP22 txn prim -5.0% and HTT prom inh 4.8%.
CC1CNc2c(cccc2S(=O)(=O)N[C@@H](CCCN=C(N)N)C(=O)N2CC[C@@H](C)C[C@@H]2C(=O)O)C1 (some centres not stated) was read as HTT prom inh -0.8%.
`O=C(NCCc1ccc(Cl)cc1)c1ccc(Nc2nc3ccccc3n3nnnc23)cc1` gave PMP22 txn prim inconclusive and HTT prom inh 6.4%.
For O=C(c1ccc(Nc2nc3ccccc3n3nnnc23)cc1)N1CCN(c2cccc(C(F)(F)F)c2)CC1 the results were PMP22 txn prim inconclusive and HTT prom inh -8.4%.
`COc1ccc(S(=O)(=O)N2CCN(c3cccc(C)c3C)CC2)c2ccccc12` gave PMP22 txn prim 8.6% and HTT prom inh -2.5%.
Screening CCc1ccccc1NC(=O)CCn1cccn1 returned PMP22 txn prim 3.6% and HTT prom inh -7.0%.
Screening COc1ccc(CCNC(=O)CSc2cn(CCNC(=O)c3cccc(C(F)(F)F)c3)c3ccccc23)cc1OC returned PMP22 txn prim inconclusive and HTT prom inh inconclusive.
For Cc1ccc(-c2nc(S(=O)(=O)c3ccc(C)cc3)c(N3CCCCCC3)o2)cc1 the results were PMP22 txn prim inconclusive and HTT prom inh -13.9%.
Screening CCOC(=O)N1CCc2c(sc(NCc3sccc3C)c2C(=O)Nc2ccccc2OCC)C1 returned PMP22 txn prim inconclusive and HTT prom inh inconclusive.

Assay outcomes (PubChem)
